Biofilm kill mix: mixtures killing C. albicans biofilm; AID 1242; inhibition, % at 7.6 µM; actives 0.02% (n = 120,000); C. albicans biofilm persisters + clotrimazole, fluorescence viability; primary screen in compound mixtures of four per well;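 active = inhibition above 30.3% in the primary screen of four-compound pools, then above 30% when the compound was retested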;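 also: compounds exposed to preformed 24 h biofilms for 48 h; the number belongs to the whole pool; some results filed as inactive read as strong as hits; inactives centre near 12; 0% = biofilm with clotrimazole alone and 100% = kill control; retested singly at about 60 µM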
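Probe or stimulus – Clotrimazole 50 µg/mL co-treatment · System – C. albicans biofilms · Schedule – 24 h biofilm formation, then 48 h compound exposure, 37 °C · Evaluation – percent inhibition of biofilm viability · Technique – 2-h Alamar Blue fluorescence, 535/590 nm excitation/emission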
Numbers without * were called inactive.

SMILES	Biofilm kill mix
O=C(O)[C@@H]1C[C@H]1[C@@H](NP(=O)(c1ccccc1)c1ccccc1)c1ccccc1	13.0
CCOc1cc(C=C2C(=O)NC(=O)NC2=O)ccc1OCC(=O)N1CCOCC1	10.9
CCCCCCC(=O)N/N=C/c1c(O)n(CCc2ccccc2)c(=O)[nH]c1=O	17.4
Cc1cc(C)cc(N2C(=O)NC(=O)/C(=C\c3cccn3-c3ccccc3)C2=O)c1	20.8
CC(=NCCN(C)C)c1c(O)n(Cc2ccccc2)c(=O)[nH]c1=O	4.0
O=c1[nH]c(O)c(N=Nc2ccc([N+](=O)[O-])cc2)c(=O)[nH]1	-3.9
Cc1cc(/C=C2\C(=O)NC(=O)N(c3ccc(Br)cc3)C2=O)c(C)n1C	6.0
C/C(=N\NC(N)=O)c1c(O)n(C)c(=O)n(C)c1=O	10.9
Cc1nn(Cc2ccccc2)c(Cl)c1C(=O)OCC(=O)NCC1CCCO1 (stereo not given)	10.2
CC(C)OP(=O)(OC(C)C)C(O)c1cccnc1 (stereo not given)	9.1
C[C@]12CC[C@@H](O)C[C@@H]1CC[C@@H]1[C@@H]2CC[C@]2(C)[C@@H](O)CC[C@@H]12	9.7
CCCCn1c(O)c(/C=N/NC(=O)c2ccncc2)c(=O)[nH]c1=O	6.5
COc1ccc(C(=O)C2CCCN(Cc3ccsc3)C2)cc1OC (stereo not given)	14.2
CCC(C)n1c(O)c(C=Nc2cccc(C(F)(F)F)c2)c(=O)[nH]c1=S (stereo not given)	16.1
CC1=NN(c2ccccc2)C(=O)/C1=C/c1c(O)[nH]c(=O)[nH]c1=O	0.4
CC(C)(C)n1cc(C(=O)c2ccc3ccccc3c2O)cn1	15.2
CCCCn1c(O)c(/C=C/C=Nc2ccccc2)c(=O)[nH]c1=O	12.4
O=C1C2CCN(CC2)C1Cc1ccc(OCc2ccccc2)cc1 (stereo not given)	-12.9
Fc1ccc(CNCCc2ccccc2)cc1	14.7
c1ccc2c(c1)Sc1ccccc1N2CC1CN2CCC1CC2 (stereo not given)	11.5
CSc1nnc([C@@H](N)Cc2c[nH]c3ccccc23)o1	18.2
C[N+](C)(C)CC(=O)Nc1ccc(Cl)cc1C(=O)c1ccccc1	10.2
CCC(C)c1ccc(N2C(=O)NC(=O)/C(=C/c3cccn3CCOc3ccc(C)cc3)C2=O)cc1 (stereo not given)	12.0
CN1CCN(C(=O)COc2ccc(Oc3ccccc3)cc2)CC1	6.7
COc1ccccc1OCCCn1cc(C=O)c2ccccc21	26.4
O=C(c1cccc(Cl)c1)C1CCCN(Cc2ccon2)C1 (stereo not given)	12.5
COc1cccc(C2(O)CCSCC2CN(C)C)c1 (stereo not given)	12.7
CCOP(=O)(OCC)C1(O)C(=O)Nc2ccc(Br)cc21 (stereo not given)	14.5
CCN(CCNc1ccc([N+](=O)[O-])c2cccnc12)S(=O)(=O)c1ccccc1	11.8
Cc1cc(NC(=O)CCl)on1	4.7
CN1CCN(CC(=O)Nc2ccc([N+](=O)[O-])cc2C(=O)c2ccccc2)CC1	7.2
COc1ccc(C(CNC(=O)Cc2ccc(Cl)c(Cl)c2)N(C)C)cc1 (stereo not given)	15.4
Cc1ccccc1-n1c(/C=C/c2ccccn2)nc2ccccc2c1=O	13.6
CC(=O)O[C@]1(c2ccccc2)CCN(C)[C@H]2CCCC[C@@H]21	8.4
COc1ccc(-c2cc(=NCCC(=O)O)c3cc(C)ccc3o2)cc1	-17.9
O=C1NC(=O)N(c2ccccc2F)C(=O)/C1=C/c1ccc(Sc2nc3ccccc3[nH]2)o1	9.3
OC1C2CN3CN(C2)CC1(c1ccccc1)C3 (stereo not given)	15.8
CSc1nnc(OC(=O)N(C)C)n1-c1ccc(Cl)cc1	15.5
O=c1c2ccccc2nc(CNCC2CCCO2)n1-c1ccc(F)cc1 (stereo not given)	28.4
O=C(COC(=O)Cc1ccccc1)Nc1cc(S(=O)(=O)N2CCOCC2)ccc1N1CCCC1	15.3
CC1CCSP(=O)(Oc2ccccc2)O1 (stereo not given)	6.4
N#CCCn1cc(C(=O)Nc2ccc([N+](=O)[O-])cc2)c(-c2ccccc2)n1	20.6
Cc1ccsc1C(=O)C1CCCN(Cc2ccn[nH]2)C1 (stereo not given)	9.9
COCCNC(=O)c1ccc(N2CC3CC(C2)c2cccc(=O)n2C3)c([N+](=O)[O-])c1 (stereo not given)	14.6
CCN(CC)P(=O)(c1n(CC)cc[n+]1CC)N(CC)CC	6.3
Cn1c(=O)n(C)c2cc([N+](=O)[O-])c(N3CCNCC3)cc21	17.0
CC1CN2c3ccc([N+](=O)[O-])cc3CC3(C(=O)N(C)C(=O)N(C)C3=O)C2C(C)O1 (stereo not given)	14.8
CN1CCN(c2ccc([N+](=O)[O-])c(N)c2)CC1	6.9
O=C(C(=O)N1CCOCC1)c1cn(Cc2ccccc2)c2ccccc12	14.6
CC(C)(O)[C@H]1O[C@H]2CC[C@@]3(C)[C@@](O)(CC[C@H]4Cc5c([nH]c6ccccc56)[C@@]43C)C2=CC1=O	2.5
CN(C)P(=O)(CCl)Nc1ccccc1 (stereo not given)	5.9
Cc1cc(C)c(-n2c(O)c(/C=N/N3CCCCC3c3cccnc3)c(=O)[nH]c2=O)c(C)c1 (stereo not given)	7.2
CCn1cc(/C=c2/sc3n(c2=O)C2c4ccccc4OC(C)(N=3)C2C(=O)OC)c(C)n1 (stereo not given)	25.4
O=C1N(c2nncs2)CCN1[N+](=O)[O-]	15.3
CCS(=O)(=O)NCc1nnc2n1-c1ccc(Cl)cc1C(c1ccccc1)=NC2	9.1
CCOP(=O)(OCC)c1cccc(O)c1	13.2
CN1C(=O)N(C)C(=O)C2(Cc3cc([N+](=O)[O-])ccc3N(C)C2)C1=O	20.7
C/C(=N\NC(=S)Nc1ccccc1)c1c(O)n(C)c(=O)n(C)c1=O	5.8
C/C(=N\Nc1ccccc1)c1c(O)[nH]c(=O)[nH]c1=O	4.8
O=c1[nH]c(=O)n(Cc2ccco2)c(O)c1C=NC1CCN(Cc2ccccc2)CC1	30.4

Reformatted in CSV form: five of the compounds above.
SMILES,Biofilm kill mix
Cc1cc(C)c(-n2c(O)c(/C=N/N3CCCCC3c3cccnc3)c(=O)[nH]c2=O)c(C)c1 (stereo not given),7.2
CCn1cc(/C=c2/sc3n(c2=O)C2c4ccccc4OC(C)(N=3)C2C(=O)OC)c(C)n1 (stereo not given),25.4
O=C1N(c2nncs2)CCN1[N+](=O)[O-],15.3
CCS(=O)(=O)NCc1nnc2n1-c1ccc(Cl)cc1C(c1ccccc1)=NC2,9.1
CCOP(=O)(OCC)c1cccc(O)c1,13.2

Remaining list, next part
SMILES	Biofilm kill mix
CCc1c(C(=O)NN2C(=O)C3C4CCC(O4)C3C2=O)csc1C (stereo not given)	12.0
O=c1[nH]c(O)c(N=Nc2cc(C(F)(F)F)ccc2Cl)c(=O)[nH]1	-5.8
COc1cc(/C=C2\C(=O)NC(=O)N(c3ccc(C)cc3)C2=O)cc(OC)c1O	-2.0
CN(C)C(=O)Oc1ccc(Br)cc1C(=O)Nc1ccc(F)c(Cl)c1	23.9
CCn1c(P(C)(=O)O)nc2cc(NC(=O)c3ccccc3F)ccc21	-16.0
CC12CN3CC(C)(CN(C1)C31CCOCC1)C2=O	5.4
Cc1ccccc1-n1c(C)cc(/C=C2/C(=O)NC(=O)N(Cc3ccco3)C2=O)c1C	5.3
CCOc1ccc(-c2cc(C)[n+](CCN3CCOCC3)c(-c3ccc(OCC)cc3)c2)cc1	8.1
C/C(=N\N1CCCCC1)c1c(O)[nH]c(=O)[nH]c1=O	12.2
COc1ccc(CCn2c(O)c(C=Nc3ccc(F)cc3)c(=O)[nH]c2=O)cc1OC	14.4
COc1ccc(CCNC(=O)COC(=O)Cc2ccccc2)cc1	11.9
CCCC(C)C1(CC)C(=O)NC(=O)N=C1N (stereo not given)	18.4

Of the compounds above, 3 contain a thiophene ring, fused or not.
SMILES	Biofilm kill mix
COc1ccc(C(=O)C2CCCN(Cc3ccsc3)C2)cc1OC (stereo not given)	14.2
Cc1ccsc1C(=O)C1CCCN(Cc2ccn[nH]2)C1 (stereo not given)	9.9
CCc1c(C(=O)NN2C(=O)C3C4CCC(O4)C3C2=O)csc1C (stereo not given)	12.0

A few values from above:
`COc1cc(/C=C2\C(=O)NC(=O)N(c3ccc(C)cc3)C2=O)cc(OC)c1O` @ Biofilm kill mix = -2.0
`CCCC(C)C1(CC)C(=O)NC(=O)N=C1N` (stereo not given) @ Biofilm kill mix = 18.4

(next part)
SMILES	Biofilm kill mix
CCCn1ncc(CN2CCCC(C(=O)c3cccc(OC)c3)C2)c1C (stereo not given)	12.1
O=P1(Oc2ccccc2)C[C@@H](O)[C@@H](O)[C@H](COCc2ccccc2)O1 (stereo not given in full)	10.8
N#CCCn1cc(C(=O)NCc2ccccc2)c(-c2ccc3c(c2)OCCO3)n1	7.0
C/C=C/CC1(CC)C(=O)NC(=S)NC1=O	12.0
CCN(CC)S(=O)(=O)c1cccc(N=Nc2c(O)n(CC)c(=S)n(CC)c2=O)c1	15.2
O=S(=O)(c1ccc(F)cc1)N1CCCC1c1cccnc1 (stereo not given)	22.0
CC(C)n1c(O)c(C2c3cc(Cl)ccc3Oc3[nH]c(=O)n(C(C)C)c(=O)c32)c(=O)[nH]c1=O (stereo not given)	20.8
Nc1c2c(nc3sc4c(c13)CCCC4)CCCC2	18.3
O=C(c1ccc2c3c(cccc13)CC2)C1CCCN(CC2CC2)C1 (stereo not given)	13.8
CC(=NCc1ccco1)c1c(O)n(-c2ccccc2C)c(=O)[nH]c1=O	14.7
O=[N+]([O-])/C=C1/NCCN1Cc1ccc(Cl)nc1	9.1
CC/C(=N\NC(=S)Nc1ccccc1)c1c(O)[nH]c(=O)[nH]c1=O	26.7
CC(=O)Nc1ccccc1C(=O)OCC(=O)c1ccc2c(c1)OCCO2	10.0
CCCCC(=O)N/N=C/c1c(O)n(CC)c(=S)n(CC)c1=O	10.4
O=Cc1cn(Cc2ccc(F)cc2Cl)c2ccccc12	-2.4
N#CC[N+]1(CCCNP2(=O)C=C(c3ccccc3)OC(c3ccccc3)=C2)CCOCC1	5.1
COc1c(C)cc(C(=O)C2CCCN(Cc3cnc(C)s3)C2)cc1C (stereo not given)	4.4
Cc1nc2ccc(P(=O)(O)O)cc2s1	11.0
Cc1cc(C=O)c(C)n1C(C)C	23.3
C/C(=C/C=C/[C@@H](C)C(=O)O)[C@H]1CN[C@H](C(=O)O)[C@H]1CC(=O)O	9.4
COc1ccc(NC2=NCC(C)S2)cc1 (stereo not given)	11.7
O=C1NC(=O)C(=Cc2ccsc2)C(=O)N1	2.1
CCCCCSc1cc(O)c(C(CNC)C(C)C)cc1OC (stereo not given)	9.9
CCCC(=O)c1ccc(CP(=O)(OCC)OCC)o1	17.8
Cn1c(=O)c2c(nc(N/N=C/c3c(O)n(C4CCCCC4)c(=S)[nH]c3=O)n2C)n(C)c1=O	19.5
CCC(C)C1NC(=O)C(C(C)=O)=C1O (stereo not given)	22.6
CC1COC2N=C(N[N+](=O)[O-])NC2O1 (stereo not given)	22.2
CN(C)CCCNCC(=O)Nc1ccc(Cl)cc1C(=O)c1ccccc1	14.5
O=[N+]([O-])c1cc(-c2ccc([As](=O)(O)O)cc2)ccc1[As](=O)(O)O	13.8
C=CCC1C(=O)NC(=S)NC1=O	3.0
Nc1ccc(C2(c3ccc(N)cc3)c3ccccc3-c3ccccc32)cc1	20.8
CN(C)CC1CSCCC1(O)c1cccc(Cl)c1 (stereo not given)	2.3
Oc1c(Br)cc(Br)cc1Oc1ccc(Br)cc1Br	17.4
Nc1ccc(Cl)cc1C(=O)c1ccccc1	12.0
O=C(CN1CCCCC1)c1ccc(OC(F)F)cc1	16.5
O=C1NC(=O)N(Cc2ccco2)C(=O)/C1=C\c1cccn1CCOc1ccc(Cl)cc1	14.1
CSc1ncc(CN2CCCC(C(=O)c3cccc(Cl)c3)C2)cn1 (stereo not given)	30.0
NNc1n[nH]c(=S)n1N	22.5
Cc1ccsc1C(=O)C1CCCN(Cc2ccc(-n3cccn3)cc2)C1 (stereo not given)	23.7
O=c1[nH]c(=S)n(-c2ccccc2)c(O)c1/C=N/N1CCCCC1c1cccnc1 (stereo not given)	18.7
CC1(C)C[C@H]2C=C(C=O)[C@]3(C=O)C[C@]3(C)[C@H]2C1	7.7
CC/C(=N\Nc1ccccc1)c1c(O)n(-c2ccccc2)c(=O)[nH]c1=O	19.1
COCCN1C(=O)/C(=C/c2c(OC)cc(OC)cc2OC)C(=O)N(c2ccccc2)C1=O	18.0
COC(=O)C1=Nc2ccccc2/C1=C\c1c(O)n(-c2cc(OC)ccc2OC)c(=O)[nH]c1=O	10.4
CC(=O)N1CCN(c2ccc([N+](=O)[O-])cc2C=C2C(=O)NC(=O)NC2=O)CC1	20.5
Cc1ccc(NC(=S)NCCc2cnc[nH]2)cc1C	10.9
COP(=O)(OC)C(NC(C)=O)C(Cl)(Cl)Cl (stereo not given)	17.2
COc1cc2c(cc1/C=C/[N+](=O)[O-])OCO2	12.3

A section of the results above, for reference:
SMILES	Biofilm kill mix
CSc1ncc(CN2CCCC(C(=O)c3cccc(Cl)c3)C2)cn1 (stereo not given)	30.0
NNc1n[nH]c(=S)n1N	22.5

New compounds follow:
SMILES	Biofilm kill mix
CCc1ccc(-n2c(O)c(/C=N/N3CCCCC3c3cccnc3)c(=O)[nH]c2=O)cc1 (stereo not given)	17.8
NC1=NC(c2cccnc2)n2c(nc3ccccc32)N1 (stereo not given)	23.9
COc1ccc(OCC(=O)N2CCN(C(C)C)CC2)cc1	3.3
Cc1ccc(-c2nn(Cc3ccccc3)cc2C=O)cc1	19.7
CC12CCC3C(CC=C4CC(O)CCC43C)C1C/C(=C\c1cccc(F)c1)C2=O (stereo not given)	5.6
Cc1cccc2c(CCN)c[nH]c12	11.9
CC1CC(C)CN(CC(=O)c2ccc(OC(F)F)cc2)C1 (stereo not given)	17.6
O=P1(Oc2ccccc2)CC=C[C@H](COCc2ccccc2)O1 (stereo not given in full)	18.2
CCC(C)n1c(O)c(C=NCCN2CCOCC2)c(=O)[nH]c1=S (stereo not given)	3.2
O=C(NCC(c1cccnc1)N1CCN(c2ccc(F)cc2)CC1)Oc1ccccc1 (stereo not given)	8.4

From PubChem BioAssay

A portion of the library; the hit share may differ from the screen's.
